Screens (PubChem)
LANA-nucl inh = inhibitors of KSHV LANA binding to nucleosomes; FITC-LANA1-23 / chicken nucleosome fluorescence polarization; stronger effect = lower value; z-score (no concentration beside the values); 51,000 tested, 0.3% active;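 active means both repeat wells score below -2 in polarization z-score versus plate sample wells, excluding overly bright wells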;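 further: 100 nL library stock added to about 30 µL; numbers are from one replicate; some results filed as inactive read as strong as hits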
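System – purified chicken nucleosomes with FITC-labelled LANA N-terminal peptide (1-23) · Amount – 240 nM purified chicken nucleosomes (480 nM peptide binding sites), final · Also added – 50 nM FITC-LANA1-23 probe · Medium – TEN-BT buffer, pH 7.5 · Incubation – compound with peptide–nucleosome mix 10–45 min at room temperature · Detection – fluorescence polarization, ex 480 nm, em 535 nm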
BasE inh = BasE siderophore biosynthesis inhibition. purified BasE, fluorescence polarization binding displacement. inhibition, % (no concentration beside the values). 84,000 tested, 0.1% active. AID 485350;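 active means both replicates above 25% with normal brightness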;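 further: 0% = negative plate control signal and 100% = positive plate control signal; stock transfer was 100 nL into about 30 µL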
* hit, by the source's call; x = not tested or not shown; & = joins results of further samples.

Start of the data: the first three entries as a preview:
SMILES	LANA-nucl inh	BasE inh
C/C(=N\O)C(=O)NCC1CCNCC1	-0.7	1.5
CN(C)c1ccc(C(=S)N2CCN(c3ccccc3F)CC2)cc1	-0.45	-3.7
Cc1cc(C)nc(N2CCC(NC(=O)OC(C)(C)C)CC2)n1	1.2	-1.9

Main list (from the top)
SMILES	LANA-nucl inh	BasE inh
C/C(=N\O)C(=O)NCC1CCNCC1	-0.7	1.5
CN(C)c1ccc(C(=S)N2CCN(c3ccccc3F)CC2)cc1	-0.45	-3.7
Cc1cc(C)nc(N2CCC(NC(=O)OC(C)(C)C)CC2)n1	1.2	-1.9
COC(=O)c1ccc(NC2CCCCC2)c(N)c1	1.8	-3.1
Cc1nc2ccc(F)cc2c2c1COC2	-0.15	3.0
CCC(Sc1nc2cc(OC)c(OC)cc2c(=O)n1Cc1ccco1)C(=O)Nc1cccc(OC)c1 (configuration not stated)	-1.2	-0.4
COc1ccc(C)cc1-n1c(SCC(=O)N(C)C2CCS(=O)(=O)C2)nc2ccccc2c1=O (configuration not stated)	x	-0.2
CC1CCCCN1C(=S)NC(=O)c1cccs1 (configuration not stated)	x	1.5
CN1CCN(C(=O)CSc2nc3ccccc3n2C)CC1	x	1.1
O=c1c2cc3sccc3n2cc(-c2ccccc2)n1-n1cccc1	0.0035	-0.3
Nn1c(SCc2csc(-c3ccccc3)n2)nnc1-c1cccs1	x	-0.3
CSC1=N/C(=C\c2ccccc2O)C(=O)N1Cc1ccc(Cl)cc1	x	-3.7
COc1cc(C2N(C)c3ccccc3-c3nc4ccccc4n32)cc(OC)c1OC (configuration not stated)	-0.41	1.1
CCCc1[nH]nc2c1C1(CCN(C)CC1C)C(C#N)=C(N)O2 (configuration not stated)	-0.69	1.8
Cc1ccccc1-c1nnn(Cc2ccc(-c3nn[nH]n3)cc2)n1	0.18	4.4
CCOC(=O)/C=C1\SCC(=O)N1CC(=O)N1CCN(S(=O)(=O)c2ccc3ccccc3c2)CC1	x	-2.3
O=C(Nc1ccc2c(c1)OCCO2)c1csc2c1CCCC2	-0.67	-0.8
CCN(CC)N=Nc1ccc(NC(C)=O)cc1	0.026	-0.1
COc1ccc(C(=O)Nc2ccc(S(=O)(=O)Nc3nccnc3OC)cc2)cc1	x	3.0
CCc1cc2c3c(c1)/C(=C1/SC(N)=NC1=O)C(=O)N3C(C)(C)C=C2C	1.1	0.0
COC(=O)/C(=C(/O)c1ccccc1)c1nc2ccccc2[nH]1	x	4.2
CCCCc1ccc(C(=O)/C=C2\NC(=O)CS2)cc1	x	-1.4
Clc1ccccc1C1=NC2=S(O1)OC(c1ccccc1Cl)=N2	x	4.5
CCOC(=O)c1c(C(C)(C)C)oc2ccc(OCC(=O)OC)cc12	x	2.2
CCOC(=O)c1cnc2c(ccc3ccccc32)c1NCCN1CCOCC1	-0.25	-0.8
Nn1c(NNC(=O)c2ccccc2)nnc(-c2cccs2)c1=O	x	1.8
CC1CC(C)CN(CCC(=O)Nc2ccccc2F)C1 (configuration not stated)	-0.4	0.1
CCN(CC(=O)Nc1cccc(OC)c1)Cc1cc(=O)oc2cc(NC(C)=O)ccc12	x	-2.1
COc1ccc2oc(=O)cc(CN3CCCCC3)c2c1	0.93	-0.1
CC(c1nnc(SCc2cc(=O)n3ccsc3n2)n1-c1ccc(Cl)cc1)N1CCCCC1 (configuration not stated)	x	-0.8
O=C(COc1ccccc1)Nc1ccc2[nH]c(=O)[nH]c2c1	x	0.7
CCN1CCN(C(C)C(=O)N(C(C)C)C(C)C)CC1 (configuration not stated)	-0.15	0.8
COc1ccc(N/C=C(/C#N)c2cccs2)cc1	0.44	x
O=C(CC1OC(=O)c2ccccc21)c1cc(O)ccc1O (configuration not stated)	0.25	1.4
CC(C)OC(=O)Cc1csc(-c2ccc(Oc3ccc(C(F)(F)F)cn3)cc2)n1	x	-0.2
Cc1ccc2nc(C)c3cc(C)oc3c2c1	-0.079	-2.4
O=C(c1ccc(Cl)cc1)N1CCCC(C(=O)N2CCCc3ccccc32)C1 (configuration not stated)	x	3.2
Cn1c(-c2ccc(Br)cc2)n[nH]c1=S	0.022	1.1
COc1ccc(OCC(O)CNC(=O)c2ccc(N(C)C)cc2)cc1 (configuration not stated)	x	2.8
Cc1ccc(/C=C/S(=O)(=O)N2CCC(C(=O)O)CC2)cc1	x	3.2
Fc1ccc(N2CCN(Cc3c[nH]c4ccccc34)CC2)cc1	-1.1	x
Cc1cc(C)nc(-n2nc(C)cc2NC(=O)CN2CCCC2)n1	x	0.9
O=C(Nc1csnc1-c1c(Cl)cccc1Cl)NN1CCOCC1	-1.3	2.7
CC12CC(NC(=O)N1c1ccc(C(=O)N3CCN(Cc4ccc5c(c4)OCO5)CC3)cc1)c1cc(Cl)ccc1O2 (configuration not stated)	0.73	2.7
COC(=O)Cn1c2ccc(C)cc2c2nc3ccccc3nc21	-1.1	2.4
C=CCC(O)(CN)CC=C	2	-1.3
Cc1ccc(-c2nc3ccccc3s2)cc1NC(=O)c1ccccc1	x	0.4
O=C1CC(c2ccccc2)CN1Cc1ccccc1 (configuration not stated)	x	0.7
O=C(OC(Cc1ccccc1)C(F)(F)F)c1ccc(Cl)cc1Cl (configuration not stated)	x	4.0
COc1cccc(-c2nnn(-c3nc(CN4CCCCC4)nc4sc5c(c34)CCCC5)n2)c1	x	-3.8
Cc1ccc(-n2c(SCc3nc(N)nc(N)n3)nnc2-c2ccccc2)cc1C	x	4.0
O=C(/C=C/c1ccc(OC(F)F)cc1)OC1CCCC1=O (configuration not stated)	x	-0.6
COc1ccc(/C=c2\s/c(=C\C#N)n(C)c2=O)cc1	x	0.1
O=C(N1CCOCC1)N1CCN(S(=O)(=O)c2ccccc2)C1	-0.28	1.5
COC(=O)c1ccc(COC(=O)CN2C(=O)C3CC=CCC3C2=O)cc1 (configuration not stated)	x	3.1
CCOC(=O)c1sc(SC)c2c1CC(c1ccc(OC)cc1)CC2=O (configuration not stated)	x	-3.3
CCC1(C)N(O)C(C)C(c2ccccc2)=[N+]1[O-] (configuration not stated)	0.83	2.5
C/C(=N\O)C(=O)c1ccc(Cl)cc1	x	1.6
CC(C)=CCC/C(C)=C/CC/C(C)=C/CSCC(=O)O	-0.99	2.7
CN1CC(C(=O)Nc2ccc(I)cc2)CC1=O (configuration not stated)	-0.15	3.6

(cont.)
SMILES	LANA-nucl inh	BasE inh
O=C1c2ccccc2S(=O)(=O)N1CCS(=O)(=O)c1ccc(Cl)cc1Cl	x	2.7
CC(=O)N1CCCC(C(=O)O)C1 (configuration not stated)	x	0.7
O=C(COC(=O)c1cccc(S(=O)(=O)N2CCCCC2)c1)Nc1ccccc1	x	0.1
COc1ccc(Nc2nc(N)nc(CN3CCC(C)CC3)n2)cc1	-0.48	-0.4
Cc1ccc2c(c1)N(C(C)C(=O)O)C(=O)CO2 (configuration not stated)	-0.47	-0.2
O=c1cc(-c2ccccc2)nc(Nc2nc3ccccc3o2)[nH]1	x	1.7
CC(C)(C)OC(=O)N1CCN(C2CC(=O)N(c3ccccc3)C2=O)CC1 (configuration not stated)	1.1	2.9
COC(=O)c1cnn(C(=O)Nc2c(C)cccc2C)c1C(OC)OC	-0.094	0.8
O=S(=O)(NC1CCCC1)c1cccc(S(=O)(=O)N2CCCCC2)c1	-0.4	0.0
Brc1ccc2ncnc(Nc3ccc(N4CCCC4)cc3)c2c1	1.3	-21
CN(C)c1ccc2cc(C(=O)O)[nH]c2c1	-1.1	-1.0
CCc1ccc(S(=O)(=O)NCCc2csc(C)n2)cc1	0.19	-1.4
CC1CCN(C(c2ccccc2)c2nnnn2Cc2ccc(F)cc2)CC1 (configuration not stated)	2.8	-1.6
COc1ccc(-c2ocnc2C(=O)NCc2nn(-c3ccccc3)nc2C)cc1	x	2.2
CC(C)NC(=O)Nc1ccccc1C(=O)N=c1sc2ccccc2n1C	x	2.5
CCn1cc(C(=O)N(Cc2ccc(F)cc2)C2CCCCC2)c(=O)c2ccc(C)nc21	x	1.1
CCN(CC)c1ccc(CN2CCN(Cc3ccccc3)CC2)cc1	-0.51	x
COc1ccc(Cc2nnc3n2N=C(N)CS3)cc1	-1.2	0.8
C/C(=N\OCC(=O)N1CCN(c2ccccc2)CC1)c1ccccc1	x	1.0
O=C1c2ccccc2C(=O)N1CN(C(=O)c1ccccc1)c1ccc(O)cc1	0.26	1.9

3 compounds out of the list, sorted by length of the SMILES, descending:
SMILES	LANA-nucl inh	BasE inh
CCn1cc(C(=O)N(Cc2ccc(F)cc2)C2CCCCC2)c(=O)c2ccc(C)nc21	x	1.1
O=C(COC(=O)c1cccc(S(=O)(=O)N2CCCCC2)c1)Nc1ccccc1	x	0.1
CC(C)(C)OC(=O)N1CCN(C2CC(=O)N(c3ccccc3)C2=O)CC1 (configuration not stated)	1.1	2.9

The main list resumes, repeating the 4 entries before the break.
SMILES	LANA-nucl inh	BasE inh
CCN(CC)c1ccc(CN2CCN(Cc3ccccc3)CC2)cc1	-0.51	x
COc1ccc(Cc2nnc3n2N=C(N)CS3)cc1	-1.2	0.8
C/C(=N\OCC(=O)N1CCN(c2ccccc2)CC1)c1ccccc1	x	1.0
O=C1c2ccccc2C(=O)N1CN(C(=O)c1ccccc1)c1ccc(O)cc1	0.26	1.9
COc1ccc(I)cc1S(=O)(=O)N1CCOCC1	x	0.7
CCNc1nc(NCC)n2c(SC(C)C(=O)c3ccc(C)cc3)nnc2n1 (configuration not stated)	-0.44	-0.7
Cc1cc(C)c2[nH]c(=O)c(CN(CC3CCCO3)C(=O)NC3CCCCC3)cc2c1 (configuration not stated)	0.26	1.1
COc1ccc(/C=C/C(=O)O)cc1S(=O)(=O)N1CCCC1	-0.19	1.2
CN(c1ccccc1)S(=O)(=O)c1ccc2[nH]c(=O)oc2c1	-0.31	2.8
O=C1OC(Nc2ccccn2)c2ccccc21 (configuration not stated)	-1.2	-1.8
CCOc1ncccc1C(=O)Nc1cccc(C(F)(F)F)c1	0.37	x
CCOc1ccccc1NC(=O)CSc1nnc(C(CO)NC(=O)c2ccc(OC)cc2)n1C (configuration not stated)	0.67	0.6
CC1CCc2sc(C(=O)OC3CCCCC3=O)cc2C1 (configuration not stated)	x	-3.9
Clc1ccc(SC2CN(C(c3ccccc3)c3ccccc3)C2)cc1	0.35	x
CC(=O)N(CCc1ccccc1)C1CC(=O)N(c2ccccc2)C1=O (configuration not stated)	x	2.4
N#Cc1ccccc1NC(=O)COC(=O)c1ccccc1I	x	-1.9
CCOC(=O)c1cccc(-c2ccc(/C=C3\C(=N)N4N=C(N5CCCC5)SC4=NC3=O)o2)c1	-0.11	1.0
Cc1cc(=O)[nH]c2nnc(SCC(=O)NC(C)C)n12	0.22	0.9
COc1cccc(OC)c1C(=O)Nc1ccccc1NC(=O)c1c(OC)cccc1OC	x	1.5
Cc1noc(C)c1C(=O)NCCC12CC3CC(CC(C3)C1)C2	x	1.0
CCN1C(=O)C(O)(c2c[nH]c3ccccc23)c2ccccc21 (configuration not stated)	-1.2	-1.6
C=C(C)c1cccc(C(C)(C)NC(=O)N2c3ccc(F)cc3CCC2C)c1 (configuration not stated)	x	-2.7
CC(Sc1ccccc1)C(=O)Nc1ccc(N2CCOCC2)cc1 (configuration not stated)	x	0.6
Nn1c(SCc2cc(=O)n3ccsc3n2)nnc1-c1ccc(Cl)cc1Cl	x	2.2

Looked up by structure from the list above, 7 records:
SMILES	LANA-nucl inh	BasE inh
CCOc1ncccc1C(=O)Nc1cccc(C(F)(F)F)c1	0.37	x
COc1ccc(I)cc1S(=O)(=O)N1CCOCC1	x	0.7
CCOc1ccccc1NC(=O)CSc1nnc(C(CO)NC(=O)c2ccc(OC)cc2)n1C (configuration not stated)	0.67	0.6
O=C1OC(Nc2ccccn2)c2ccccc21 (configuration not stated)	-1.2	-1.8
CCOC(=O)c1cccc(-c2ccc(/C=C3\C(=N)N4N=C(N5CCCC5)SC4=NC3=O)o2)c1	-0.11	1.0
Cc1noc(C)c1C(=O)NCCC12CC3CC(CC(C3)C1)C2	x	1.0
CC(Sc1ccccc1)C(=O)Nc1ccc(N2CCOCC2)cc1 (configuration not stated)	x	0.6

(listing goes on)
SMILES	LANA-nucl inh	BasE inh
O=C(COC(=O)CCc1nnc(-c2ccccc2)o1)Nc1ccc(F)cc1	x	1.2
Cc1ccc(S(C)(=O)=O)cc1	x	0.8
CCCc1ccc(C2=C(C)SC3=NS(=O)(=O)CCN32)cc1	x	0.2
CN(C)CC/C=C1\c2ccccc2Sc2ccc(Cl)cc21	-0.23&-0.74	-2.7
Oc1cc2c(cc1O)CN(C(=S)NCCc1ccc(Cl)cc1)CCC2	-0.53	-0.8
Cc1nc(SCC(=O)OCN2C(=O)c3ccccc3C2=O)n[nH]1	-0.67	1.1
O=C(O)COc1ccc(C=Nc2ccc3c(c2)OCO3)cc1Cl	x	4.3
O=C(O)C1=C(C(=O)Nc2cccc(C(F)(F)F)c2)CCCC1	0.56	0.1
Cc1cc(/C=C/C(=O)O)c(C)n1-c1ccnn1C(C)C	x	-4.0
COc1ccc(-n2nc3cc(C)c(N)c(Br)c3n2)cc1	0.26	3.7
O=C(O)c1ccccc1OCc1nc2ccccc2s1	x	5.3
Cc1cccc(C(=O)N[C@H](C(=O)Nc2nc3ccccc3[nH]2)C(C)C)c1	x	-2.7
CCc1ccccc1NC(=O)CN1CCN(Cn2c(=O)oc3ccccc32)CC1	x	3.7
O=C(c1cc(O)ccc1O)c1coc2ccc(O)cc12	-0.2	3.6
Oc1cncc(Cc2ccccc2)c1	0.89	3.3
CCCCn1c(C)nc2cc(S(=O)(=O)N3CCOCC3)ccc21	x	0.8
Cc1ccc(C)n1-c1ccc(C(=O)NCC(F)(F)F)cc1	x	3.5
CSc1ncc(Nc2nc(C)cs2)cn1	-0.21	1.1
CCS(=O)(=O)N1N=C(c2ccccc2)CC1c1cc2cc3c(cc2nc1Cl)OCCO3 (configuration not stated)	x	-44

Some of the compounds tested; count on the stated rates, not on these rows.
